Screening data (PubChem BioAssay)
Rango complex inh = Rango-importin beta binding inhibition. 340,000 compounds, 0.031% hits. Rango CFP/YFP FRET sensor + importin beta, 45 min. Potency, µM (doses to about 92.2 µM), without a hit: at the top dose inhibition of complex formation. AID 540263; active = rising FRET ratio curve, often small or poorly fitted; inconclusive = mostly compound fluorescence or quenching in the first reads; inactive = flat curves in all reads;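 also: potency is read from the fitted curve at half-maximal effect; 0% = DMSO wells and 100% = buffer wells lacking importin beta; nearly all actives have a fitted effect of over 15% in size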
Target sequence (Q14974 whole entry, looked up): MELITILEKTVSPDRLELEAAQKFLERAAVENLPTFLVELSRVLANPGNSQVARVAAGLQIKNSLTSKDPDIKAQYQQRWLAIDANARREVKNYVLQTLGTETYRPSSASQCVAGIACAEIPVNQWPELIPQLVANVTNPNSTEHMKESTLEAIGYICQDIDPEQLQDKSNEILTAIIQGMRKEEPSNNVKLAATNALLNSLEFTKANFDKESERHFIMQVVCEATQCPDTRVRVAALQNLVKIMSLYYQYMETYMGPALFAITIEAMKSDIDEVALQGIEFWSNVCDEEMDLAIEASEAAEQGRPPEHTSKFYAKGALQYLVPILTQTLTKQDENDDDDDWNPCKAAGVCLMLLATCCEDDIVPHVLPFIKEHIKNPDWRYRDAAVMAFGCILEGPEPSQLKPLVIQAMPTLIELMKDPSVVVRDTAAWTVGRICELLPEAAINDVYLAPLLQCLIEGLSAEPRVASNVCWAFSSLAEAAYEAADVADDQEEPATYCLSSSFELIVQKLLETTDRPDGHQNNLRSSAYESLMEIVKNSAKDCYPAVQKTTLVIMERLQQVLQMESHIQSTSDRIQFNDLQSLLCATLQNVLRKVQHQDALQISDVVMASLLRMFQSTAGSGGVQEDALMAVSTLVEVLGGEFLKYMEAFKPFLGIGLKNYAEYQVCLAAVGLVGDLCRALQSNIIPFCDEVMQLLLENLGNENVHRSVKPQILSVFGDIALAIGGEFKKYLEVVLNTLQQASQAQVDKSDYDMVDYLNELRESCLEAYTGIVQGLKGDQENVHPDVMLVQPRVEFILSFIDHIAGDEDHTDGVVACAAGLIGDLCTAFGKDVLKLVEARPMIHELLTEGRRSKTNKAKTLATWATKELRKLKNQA
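FRET biosensor Rango (snurportin 1 IBB between N-terminal EYFP and C-terminal Cerulean), 50 nM in PBS/1 mM DTT/0.02% Tween-20/0.1% BSA, preincubated 5 min RT with compound; 0.125 microM importin beta added, 45 min RT, CFP/YFP FRET ratio read.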
miR-21 reporter = miR-21 reporter, rising signal; 340,000 tested, under 10 active; AID 2288; HeLa miR-21 FLuc reporter, luciferase, 48 h; Potency, µM (doses to about 38.3 µM), inactives show at the top dose reporter change, positive = more light; active = well fitted rising curve with a large enough effect; inconclusive = small, poorly fitted or top-dose-only effect; inactive = no such curve, though single readings can be large or run the other way;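 also: % of control where 0% means no effect; miR-21 action dims this reporter so a rising signal means less miR-21 action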
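Compounds were titrated across several concentrations (up to approximately 40 uM) and incubated 48 hours with HeLa miR-21-FLuc reporter cells (miR-21 target sequence downstream of FLuc, endogenous miR-21). Readout was firefly luciferase luminescence after lytic detection reagent.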
Rango dissoc inh = inhibitors of RanGTP-induced Rango-importin beta complex dissociation; Biochemical FRET Rango-importin beta, RanGTP-induced dissociation; Potency, µM (highest dose often 46.1 µM), inactives show at the highest dose activity change, negative = inhibition; 340,000 compounds, 0.071% hits; active means falling FRET ratio curve, often poorly fitted, with flat reads before Ran was added; inconclusive means other falling curves, or compound fluorescence or quenching; inactive means flat or rising ratio curve;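 also: potency is read from the fitted curve at half-maximal effect; % of control where 0% means no effect; nearly all actives have a fitted effect of over 45% in size; -100% = wells without RanGTP and RCC1; the record marks most hits as doubtful in a second field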
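Quantitative HTS using a FRET biosensor: 0.1 uM Rango, 0.25 uM importin beta, 0.6 uM Ran, 2 mM GTP, 0.2 uM RCC1 final, PBS with DTT, Tween-20 and BSA. Post-read taken 45 min after Ran addition.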
GLA inh pH 4.5 = blocks human alpha-galactosidase A at pH 4.5. P06280. purified enzyme, 4-MU-alpha-Gal fluorescence, pH 4.5. activity change, negative = inhibition, % at 105 µM. 230,000 tested, under 10 active. AID 1467; inconclusive = small, poorly fitted or top-dose-only inhibition, or a rising curve; inactive = flat fitted curve, though single readings scatter; no compound was filed as active;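 also: 0% = full activity with enzyme and -100% = basal without enzyme; dose as in the result columns while the protocol names 77 µM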
Active calls of the source: *; & = joins results of further samples; [ ] = another dose, or the depositor's remark. The list is partial, so the mix of outcomes need not match the whole.

COC(=O)c1c(C)[nH]c(C(=O)N2CCN(c3ccc(OC)cc3)CC2)c1C was read as miR-21 reporter 4% and GLA inh pH 4.5 10.
`OCCN(Cc1ccccc1)C(=S)Nc1ccc(F)cc1` gave Rango complex inh -1.5%, miR-21 reporter 0%, Rango dissoc inh -19% and GLA inh pH 4.5 0[21.1 µM].
`O=C(NCc1ccccc1Cl)C1CCCN1C(=O)Nc1ccccc1` (stereo not given) gave Rango complex inh 0.0%, miR-21 reporter -1% and Rango dissoc inh 8%.
`O=C(O)c1ccc(CSc2nnc(-c3ccccc3Cl)n2-c2ccccc2)cc1` gave Rango complex inh -3.5%, miR-21 reporter 2%, Rango dissoc inh -7% and GLA inh pH 4.5 -3.
Screening Cc1ccc(C(=O)NNC2=NCCC2)cc1 returned Rango complex inh -3.2%, miR-21 reporter -2%, Rango dissoc inh 9% and GLA inh pH 4.5 10.
Screening CCN(C(=O)CSc1nnc(Cn2nnc3ccccc32)o1)c1nc(-c2ccccc2)cs1 returned Rango complex inh 0.0%, miR-21 reporter 19%, Rango dissoc inh 3% and GLA inh pH 4.5 5.
For O=C(COC(=O)c1ccco1)Nc1cccc(S(=O)(=O)N2CCCCC2)c1 the results were Rango complex inh 1.0% and Rango dissoc inh 1%.
Screening Cc1cc(Cl)ccc1NC(=O)COC(=O)c1cc([N+](=O)[O-])ccc1N1CCOCC1 returned Rango complex inh -0.7% and Rango dissoc inh 17%.
`Cc1n[nH]c(=O)n1-c1ccc(C(C)(C)C)cc1` gave Rango complex inh 2.0%, miR-21 reporter -13%, Rango dissoc inh -16% and GLA inh pH 4.5 9.
FC(F)(F)c1cnc2c(c1)[nH]c(=S)n2-c1ccc(Cl)cc1 was read as Rango complex inh -0.3%, miR-21 reporter 3% and Rango dissoc inh 4%.
Screening COc1ccc(NC(=O)CN(C)C(=O)c2ccccc2SCC(=O)N2CCCC2)cc1 returned Rango complex inh -1.2% and Rango dissoc inh -11%.
For O=C(CCCNS(=O)(=O)c1cccc2nsnc12)N1CCCCC1 the results were Rango complex inh -4.7%, miR-21 reporter 0%, Rango dissoc inh 20% and GLA inh pH 4.5 -1.
CC(C)C[C@H]1CNC(=O)C(=O)N1C[C@H](C)NC(=O)Cc1ccccc1 was read as Rango complex inh 3.4%, miR-21 reporter 1% and Rango dissoc inh 15%.
Cc1ccc(S(=O)(=O)N2CCC(C(=O)N3CC(C)OC(C)C3)CC2)cc1 (stereo not given) was read as Rango complex inh -0.1%, miR-21 reporter 0% and Rango dissoc inh 1%.
`CCOC(=O)N1CCN(Cc2cccs2)CC1` gave Rango complex inh -1.5%, miR-21 reporter -4%, Rango dissoc inh 18% and GLA inh pH 4.5 -14.
`COCCSc1nnc(NC(=O)CS(=O)(=O)c2ccc(C)cc2)s1` gave Rango complex inh 5.4%, miR-21 reporter 0% and Rango dissoc inh 13%.
CN(C)CCCN(C(=O)CCc1ccccc1)c1nc2ccc(F)cc2s1 was read as Rango complex inh -1.0%, miR-21 reporter -1%, Rango dissoc inh 14% and GLA inh pH 4.5 -15.
Screening CC(C)c1ccc(NC(=O)Cn2nnc(C(=O)NCc3ccc4c(c3)OCO4)c2N)cc1 returned Rango complex inh inconclusive, miR-21 reporter -3%&-1% and Rango dissoc inh 5%.
O=C(c1ccc([N+](=O)[O-])cc1)N1CCSC1c1ccc(Cl)cc1 (stereo not given) was read as Rango complex inh 0.3%, miR-21 reporter -8%, Rango dissoc inh -5% and GLA inh pH 4.5 0.
For CCCOc1ccc(/C=N/n2nnnc2N)cc1OC the results were Rango complex inh -3.2%, miR-21 reporter -30% and Rango dissoc inh 23%.
CCc1nn(-c2ccccc2)c(=S)c2ccccc12 was read as Rango complex inh 0.0%, miR-21 reporter -22%, Rango dissoc inh 2% and GLA inh pH 4.5 4.
Screening Cc1cccc(CC(C)NC(=O)CCc2nnc(CCCCc3ccccc3)o2)n1 (stereo not given) returned Rango complex inh 0.0%, miR-21 reporter -1%, Rango dissoc inh 3% and GLA inh pH 4.5 0.
Screening Cc1ccc(OCCNC(=O)CNC(=O)c2ccccc2Cl)cc1 returned Rango complex inh -1.1% and Rango dissoc inh 1%.
`COc1ccc(CC(=O)NNc2ncnc3c2cnn3Cc2ccccc2)cc1OC` gave Rango complex inh -1.0%, miR-21 reporter -12%, Rango dissoc inh 26% and GLA inh pH 4.5 -4.
For CCOc1ccc(NC(=O)Cn2ncc3ccccc32)cc1 the results were Rango complex inh -1.0%, miR-21 reporter -51% and Rango dissoc inh 7%.
`Cc1ccc(C)c(Nc2cc(C)nc(-c3ccccc3O)n2)c1` gave Rango complex inh 1.3%, miR-21 reporter 19% and Rango dissoc inh 24%.
`Fc1ccccc1NC(=S)Nn1cnnc1` gave Rango complex inh 2.4%, miR-21 reporter -4% and Rango dissoc inh -16%.
CCOC(=O)NC(=O)CSc1nc(C)cc(C)c1C#N was read as Rango complex inh inconclusive, miR-21 reporter -5%, Rango dissoc inh -18% and GLA inh pH 4.5 0.
For CCC(=O)c1ccccc1OCCN1C(=O)NC(C)(C)C1=O the results were Rango complex inh -3.1%, miR-21 reporter -3%, Rango dissoc inh 7% and GLA inh pH 4.5 -1.
O=C(CN1C(=O)CC(c2ccco2)Sc2ccccc21)NC1CCCCC1 (stereo not given) was read as Rango complex inh 0.0%, miR-21 reporter -4%, Rango dissoc inh -14% and GLA inh pH 4.5 0.
For CCOC(=O)/C(C#N)=N/Nc1ccc(S(=O)(=O)N2CCc3ccccc32)cc1 the results were Rango complex inh -1.6%, miR-21 reporter 22%, Rango dissoc inh -1% and GLA inh pH 4.5 -15.
CS(=O)(=O)N(CC(=O)N/N=C/c1ccc(OCC(=O)N2CCOCC2)cc1)c1ccccc1Cl was read as Rango complex inh 0.2%, miR-21 reporter -3%, Rango dissoc inh 21% and GLA inh pH 4.5 3.
Screening CCOc1cccc(C(=O)Nc2ccccc2OC(F)F)c1 returned Rango complex inh 0.6%, miR-21 reporter -19%, Rango dissoc inh 2% and GLA inh pH 4.5 -5.
`CCOc1cc(/C=N/O)ccc1OCC(=O)Nc1cccc(C)c1` gave Rango complex inh 3.5%, miR-21 reporter -38%, Rango dissoc inh 28% and GLA inh pH 4.5 -2.
Screening COc1ccccc1N=Nc1ccc(N)c(C)c1 returned Rango complex inh 1.9%, miR-21 reporter -7% and Rango dissoc inh -1%.
For CC(NC(=O)CC12CC3CC(CC(C3)C1)C2)C(=O)O (stereo not given) the results were Rango complex inh 6.5%, miR-21 reporter -9%, Rango dissoc inh 4% and GLA inh pH 4.5 -1.
For C=CCOCC(O)CS(=O)(=O)Cc1ccc(Cl)cc1 (stereo not given) the results were Rango complex inh -2.4%, miR-21 reporter -3%, Rango dissoc inh 7% and GLA inh pH 4.5 -1.
For COc1ccc(-c2nnc(SC(C)C(=O)Nc3c(C)n(C)n(-c4ccccc4)c3=O)o2)cc1 (stereo not given) the results were Rango complex inh 1.2%, miR-21 reporter -5%, Rango dissoc inh -2% and GLA inh pH 4.5 -3.
`CCOC(=O)c1cccc(NC(=O)C2CCN(S(=O)(=O)c3cccs3)CC2)c1` gave Rango complex inh 3.5%, miR-21 reporter 22%, Rango dissoc inh 23% and GLA inh pH 4.5 -1.
Screening COc1ccc(CN(C)C(=O)c2ccccc2OCc2c(C)noc2C)c(OC)c1 returned Rango complex inh 0.5% and Rango dissoc inh 0%.
Screening CCC(Sc1nc2cc(OC)c(OC)cc2c(=O)n1Cc1ccc(OC)cc1)C(=O)NCCOC (stereo not given) returned Rango complex inh 0.5%, miR-21 reporter -4%&-12%, Rango dissoc inh 10% and GLA inh pH 4.5 -3.
`NS(=O)(=O)c1ccc(N/N=C2/CCCc3ccccc32)c([N+](=O)[O-])c1` gave Rango complex inh inconclusive, miR-21 reporter -5%, Rango dissoc inh -15% and GLA inh pH 4.5 2.
CCN(c1c(C)n(C)n(-c2ccccc2)c1=O)S(C)(=O)=O was read as Rango complex inh 1.9%, miR-21 reporter -8%, Rango dissoc inh -3% and GLA inh pH 4.5 -1.
For CC(NC(=O)COC(=O)COc1ccc(Cl)cc1)c1ccccc1 (stereo not given) the results were Rango complex inh -2.6% and Rango dissoc inh -16%.
`CCOc1cccc(C(=O)Nc2ccc(N(CC)CC)cc2)c1` gave Rango complex inh 2.3%, miR-21 reporter -3%, Rango dissoc inh -5% and GLA inh pH 4.5 -1.
Screening COc1ccc(O)c(-c2cc(-c3cccc(Br)c3)n[nH]2)c1 returned Rango complex inh -1.1%, miR-21 reporter -32%, Rango dissoc inh 8% and GLA inh pH 4.5 7.
`O=C(COc1ccccc1F)Nc1ccc2c(c1)CCC2` gave Rango complex inh 6.0% and Rango dissoc inh 1%.
For C/C(=N\NC(=O)CCc1ccc(S(=O)(=O)N2CCOCC2)cc1)c1ccc(Br)cc1 the results were Rango complex inh -1.6%, miR-21 reporter -1%, Rango dissoc inh 0% and GLA inh pH 4.5 -3.
`O=C(Cc1cccs1)Nc1nnc(SCc2cccc3ccccc23)s1` gave Rango complex inh 0.3%, miR-21 reporter -9%, Rango dissoc inh 27% and GLA inh pH 4.5 -11.
Cc1cccc(NC(=O)c2cc([N+](=O)[O-])ccc2N2CCN(C)CC2)c1 was read as Rango complex inh 3.9%, miR-21 reporter -12%, Rango dissoc inh -4% and GLA inh pH 4.5 -3.
Screening COC(=O)c1cn(NC(=O)Cc2ccc(Cl)c(Cl)c2)c(=O)c2ccccc12 returned Rango complex inh -3.9%, miR-21 reporter 0%, Rango dissoc inh -2% and GLA inh pH 4.5 3.
Screening O=C(NNC1=NC2(CCCC2)Cc2ccccc21)c1ccncc1 returned Rango complex inh 2.4%, miR-21 reporter 2%, Rango dissoc inh 0% and GLA inh pH 4.5 0.
Screening CCN(Cc1ccccc1)C(=O)C1CCC(CNc2c(N3CCOCC3)c(=O)c2=O)CC1 (stereo not given) returned Rango complex inh 1.6%, miR-21 reporter 2%, Rango dissoc inh -2% and GLA inh pH 4.5 -16.
Screening Cc1cc(Cl)ccc1OCC(=O)NNC(=O)c1ccc(=O)[nH]c1 returned Rango complex inh 2.2% and Rango dissoc inh -7%.
COc1cccc(C(=O)Oc2ccc3ccc(=O)oc3c2)c1 was read as Rango complex inh 3.3%, miR-21 reporter -4% and Rango dissoc inh 4%.
Screening Cc1ccc(-c2csc(-c3c[nH]c4ccccc34)n2)c(C)c1 returned Rango complex inh 5.4%, miR-21 reporter -13%, Rango dissoc inh 1% and GLA inh pH 4.5 -10.
`C=CCN1C(=O)c2ccc(C(=O)NCCOc3ccccc3F)cc2C1=O` gave Rango complex inh 0.2% and Rango dissoc inh 11%.
For CC(=O)N1CCN(CC(O)COc2ccc(S(=O)(=O)N3CCOCC3)cc2)CC1 (stereo not given) the results were Rango complex inh 6.4% and Rango dissoc inh 1%.
Screening CCCCc1c(O)nc2sc3cc(OC)ccc3n2c1=O returned Rango complex inh -5.2%, miR-21 reporter -4%, Rango dissoc inh -9% and GLA inh pH 4.5 -4.
Screening Cc1cc(C)n(CCNS(=O)(=O)c2ccc(Cl)cc2)n1 returned Rango complex inh 3.2%, miR-21 reporter -5% and Rango dissoc inh 6%.
C=CCON/C(CCC)=C1\C(=O)CC(C)(C)CC1=NC was read as Rango complex inh -1.2%, miR-21 reporter 0%, Rango dissoc inh -14% and GLA inh pH 4.5 -21.

Molecules from the list above with a nitro group on carbon (four):
Screening Cc1cc(Cl)ccc1NC(=O)COC(=O)c1cc([N+](=O)[O-])ccc1N1CCOCC1 returned Rango complex inh -0.7% and Rango dissoc inh 17%.
O=C(c1ccc([N+](=O)[O-])cc1)N1CCSC1c1ccc(Cl)cc1 (stereo not given) was read as Rango complex inh 0.3%, miR-21 reporter -8%, Rango dissoc inh -5% and GLA inh pH 4.5 0.
`NS(=O)(=O)c1ccc(N/N=C2/CCCc3ccccc32)c([N+](=O)[O-])c1` gave Rango complex inh inconclusive, miR-21 reporter -5%, Rango dissoc inh -15% and GLA inh pH 4.5 2.
Cc1cccc(NC(=O)c2cc([N+](=O)[O-])ccc2N2CCN(C)CC2)c1 was read as Rango complex inh 3.9%, miR-21 reporter -12%, Rango dissoc inh -4% and GLA inh pH 4.5 -3.
